Compound activity: PubChem, several laboratories
UUG fidelity = modulators of yeast start codon fidelity, primary screen, whole organism, S. cerevisiae, single point, plate reader. S. cerevisiae UUG-firefly luciferase reporter, luminescence/redox ratio. activity score, % at 18.7 µM. actives 0.13% (n = 350,000). AID 602363, 2012;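 active means replicate mean at a twofold rise or more, about +100% in these data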;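 further: firefly luciferase made from a UUG start codon reports start codon fidelity; reporter light over untreated wells divided by growth signal over untreated wells; some hits fall short of that in this replicate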
eIF4H FP inh = human eIF4H binding inhibitors, primary screen, translation initiation inhibitor project, biochemical, uHTS, fluorescence polarization; Eukaryotic translation initiation factor 4H (Homo sapiens), Q15056; eIF4H fluorescence polarization binding assay; inhibition, % at 35 µM; actives 0.94% (n = 290,000); AID 2012, 2009;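 active means 50% or more with normal probe brightness, or confirmed in later tests; about a fifth of its hits are not listed in these tables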;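 further: calls also rest on retests at 20 µM and on dose response follow-up; 0% = protein and probe with vehicle and 100% = probe without protein; strong numbers were not always called active; many hits fall short of the cut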
PABP polyA inh = PABP poly(A) RNA binding inhibitors, primary screen, biochemical, fluorescence polarization, uHTS; Polyadenylate-binding protein 1 (Homo sapiens), P11940; inhibition, % at 35 µM; actives 1% (n = 290,000); AID 2014, 2009;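 active means 50% or more with normal probe brightness, or confirmed in later tests; about a fifth of its hits are not listed in these tables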;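 further: calls also rest on retests at 20 µM and on dose response follow-up; controls were probe without protein and protein plus probe with vehicle; some compounds called inactive have numbers as strong as hits; many hits fall short of the cut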
Target sequence (P11940 whole entry, looked up): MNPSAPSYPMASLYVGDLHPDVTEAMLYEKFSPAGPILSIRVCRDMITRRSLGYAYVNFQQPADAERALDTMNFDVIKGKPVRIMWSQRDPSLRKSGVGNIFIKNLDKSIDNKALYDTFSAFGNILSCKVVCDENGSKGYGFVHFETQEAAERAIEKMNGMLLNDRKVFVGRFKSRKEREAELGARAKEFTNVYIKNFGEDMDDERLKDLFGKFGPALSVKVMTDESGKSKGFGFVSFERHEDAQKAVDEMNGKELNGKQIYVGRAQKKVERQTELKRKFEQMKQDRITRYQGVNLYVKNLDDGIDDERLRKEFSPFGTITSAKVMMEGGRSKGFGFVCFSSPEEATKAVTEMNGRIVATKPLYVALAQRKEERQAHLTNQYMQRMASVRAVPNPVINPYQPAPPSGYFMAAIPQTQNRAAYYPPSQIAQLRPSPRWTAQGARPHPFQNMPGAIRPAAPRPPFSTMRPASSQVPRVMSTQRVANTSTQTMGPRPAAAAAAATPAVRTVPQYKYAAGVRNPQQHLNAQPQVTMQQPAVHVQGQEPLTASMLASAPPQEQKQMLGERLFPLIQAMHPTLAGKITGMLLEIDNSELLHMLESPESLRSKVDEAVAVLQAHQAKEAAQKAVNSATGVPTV
HIV Env fusion = inhibitors of HIV-1 Env-driven cell-cell fusion, primary screen, HeLa-JRFL effector, CEM21 target cells, luciferase; inhibition, % at 12.3 µM; actives 1.1% (n = 360,000);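 active means mean replicate inhibition score of at least 50 and every replicate individually at or above 50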;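 further: 0% = plate neutral controls and 100% = maraviroc near 300 nM; one replicate is shown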
CSC inhib = cancer stem cell viability inhibitors, primary screen, luminescence. cancer stem cell-like cells viability. actives 1.1% (n = 300,000). inhibition, % at 7.5 µM;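 active means mean at 75% or more and at least half the replicates too; tested in HMLE shEcad cells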;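 further: 0% = median of negative and 100% = median of positive control wells; the first replicate is given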
Rce1 inhib = yeast Rce1p protease inhibitors, primary screen, biochemical, fluorescence, cell-free homogeneous; AID 2563, 2010; calls only; yeast membranes, quenched prenylated peptide cleavage fluorescence; actives 0.27% (n = 290,000);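 active means fall in fluorescence gain of 50% or more versus controls, with final raw signal at or below 3038400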;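 further: plate controls were neutral control wells for no effect and wells lacking membranes for full effect; tested at 10 µM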
Target sequence (Q03530 whole entry, looked up): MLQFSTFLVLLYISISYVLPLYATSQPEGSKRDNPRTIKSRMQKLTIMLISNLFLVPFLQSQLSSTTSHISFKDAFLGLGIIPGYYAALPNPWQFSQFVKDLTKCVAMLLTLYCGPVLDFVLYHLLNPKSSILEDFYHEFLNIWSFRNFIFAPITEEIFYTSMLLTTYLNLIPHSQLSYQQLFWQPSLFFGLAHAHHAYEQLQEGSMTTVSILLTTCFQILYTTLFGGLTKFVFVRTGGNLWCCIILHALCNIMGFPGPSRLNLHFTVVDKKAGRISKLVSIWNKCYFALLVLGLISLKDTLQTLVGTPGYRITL
MT1-MMP act inh = blockers of MT1-MMP proenzyme processing, primary screen, HT1080 RFP-PRO-GFP cells, GFP/RFP fluorescence | AID 651647, 2012 | GFP/RFP ratio change, % at 20 µM | actives 0.061% (n = 360,000) | GFP/RFP ratio fluorescence, overnight; percent of plate control window, DMSO zero;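 active means GFP/RFP ratio change of at least 30% with cell ATP level not reduced by more than half and red fluorescence within 50% of control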; further: strong numbers were not always called active
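Assay system: RFP-PRO-GFP reporter HT1080 cells; read-out basis: GFP/RFP fluorescence ratio; benchmarks: DMSO wells and RFP-L50D-GFP cells; doses: 20 µM single dose, 1% DMSO; schedule: overnight cell settling, then overnight compound exposure, 37 °C, 5% CO2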
MT1-MMP act inh RFP = also measured in MT1-MMP act inh; calls as there; RFP signal change, %; measured here: RFP expression control read;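 0 = vehicle wells; hits needed this value within 50% of zero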
* marks the source's active call; other numbers are inactive results; i = inactive; . = no result given; & = joins results of further samples.

cpd	canonical_smiles	UUG fidelity	eIF4H FP inh	PABP polyA inh	HIV Env fusion	CSC inhib	Rce1 inhib	MT1-MMP act inh	MT1-MMP act inh RFP
1	O=C(COc1ccc(Br)cc1)Nc1ccc(S(=O)(=O)Nc2ccccn2)cc1	22.4	0.3	-2.2	7.1	14.2	i	1.1	-1.7
2	C=CCNC(=S)NNC(=O)c1cccn(Cc2ccc(Cl)cc2)c1=O	-28.4	10.7	5.3	8.6	-5.2	i	5.8	1.2
3	COc1ccc(NS(=O)(=O)c2ccc(NC(=S)NC(=O)c3ccc(F)cc3)cc2)nn1	-5.8	-5.3	2.4	-23.9	7.4	i	-2.3	3.4
4	COc1ccccc1C(=O)NNC(=O)c1cccc(C)c1	-0.2	4.1	0.7	-35.5	-6.5	i	-8.1	-2.0
5	Cc1ccc2nc(SCC(=O)NCc3ccccc3)nc(=O)n2c1	-4.5	.	.	-81.5	-0.4	i	2.0	1.3
6	CC1(C)CC(=O)c2ccc(O)cc2O1	.	-4.4	6.9	21.8	2.9	i	5.8	8.3
7	Cc1ccc(S(=O)(=O)N2CCCCC2)cc1NC(=O)Cn1ccsc1=N	.	-8.7	7.2	17.4	-12.1	i	0.2	-0.7
8	CC(C)OC(=O)/C(=C\c1cccc2ccccc12)NC(=O)c1ccccc1	.	-1.2	6.9	7.1	-3.8	i	-2.1	-2.7
9	Cc1ccccc1NS(=O)(=O)CCCCC(Cl)(Cl)Cl	.	1.6	7.5	28.4	-13.7	i	1.4	3.5
10	O=C(CCNS(=O)(=O)c1ccccc1C(F)(F)F)NNC(=O)C1COc2ccccc2O1 (stereo unspecified)	-11.8	.	.	0.0	-3.5	i	0.4	5.2
11	CCCCN(Cc1cccs1)S(=O)(=O)c1ccc(-c2ccc(=O)[nH]n2)s1	-5.5	0.9	16.3	-0.4	-9.7	i	2.8	-2.2
12	Cc1nn(CC(=O)Nc2ccc3nc4n(c(=O)c3c2)CCCC4)c(C)c1[N+](=O)[O-]	1.2	21.6	6.2	2.7	8.1	i	0.8	-1.3
13	CCOC(=O)CSc1nc2c(c(=O)n1-c1ccc(OC)cc1)SCC2	-15.7	0.2	-8.4	-24.3	-9.2	i	-0.5	4.4
14	CC(C)C(C)(C#N)NC(=O)CSc1nnc(-c2ccncc2)n1Cc1ccccc1 (stereo unspecified)	-18.0	1.0	0.2	1.3	13.3	.	-0.4	0.5
15	Cc1ccccc1NC(=S)C1=C(O)c2sccc2N(C)S1(=O)=O	-22.5	2.8	38.8	3.2	3.6	i	0.9	4.4
16	COCCNCC#CCOc1ccc(OC)cc1	-3.1	-5.8	3.8	-1.4	-10.9	i	11.3	1.3
17	O=C(CCc1nc(-c2ccccc2Cl)no1)NC1CCCC1	7.3	0.6	6.0	-6.6	4.6	i	0.0	1.4
18	COc1ccc(CC(=O)Nc2ccc(-c3noc(COc4ccccc4C)n3)cc2)cc1	-13.9	1.6	-8.3	.	-4.0	i	3.9	-2.4
19	Cc1c(Br)cccc1NC(=O)C1(C)CCN1CCc1ccccc1 (stereo unspecified)	6.7	.	.	3.6	.	.	1.9	-4.2
20	O=C(CC1CCCC1)NCCS(=O)(=O)N1CCN(c2ccccc2F)CC1	-3.4	.	.	7.8	-6.5	i	2.3	3.3
21	COc1ccccc1OCCNC(=O)c1ccccc1C	11.1	1.2	-7.0	-24.0	-3.1	i	-2.8	-1.5
22	COCCCN1C(=O)C(=O)/C(=C(/O)c2ccc3c(c2)CC(C)O3)C1c1cccnc1 (stereo unspecified)	2.3&1.2	-1.7	5.5	.	1.2	i	4.6	8.4
23	O=C(NC(=S)Nc1ccccc1N1CCOCC1)c1ccc([N+](=O)[O-])cc1	.	-7.8	-2.1	-12.2	-1.2	i	0.5	3.4
24	COCCNc1nc2c(c(=O)n(Cc3ccc(OC)cc3)c(=O)n2C)n1C	-0.6	10.0	3.7	-17.1	-10.5	i	-3.7	1.2
25	O=C(NCc1cccc2[nH]ccc12)C1CCC(=O)N(CCc2ccc(Cl)cc2)C1 (stereo unspecified)	-2.2	-5.6	8.2	3.9	-0.8	i	-6.4	-2.5
26	O=C(CN(Cc1ccc(F)cc1)C(=O)CCC(=O)Nc1nccs1)NCC1CCCO1 (stereo unspecified)	-12.6	-6.4	-2.3	-5.6	.	i	-1.9	0.6
27	COCc1cc(=O)n2[nH]cc(-c3ccccc3)c2n1	-15.0	-9.9	1.6	-28.9	4.8	i	-0.3	5.3
28	O=C(CN1CCN(c2ccccc2)CC1)Nc1ccc(OCc2ccccc2)cc1	-1.4	1.8	2.2	.	10.4	i	7.5	1.8
29	O=C(Nc1nnc(CCc2ccccc2)s1)c1ccccc1F	-7.7	-4.3	2.0	-97.2	0.8	i	0.4	0.9
30	CC(=O)N(C)c1ccc(N2CCOCC2)c2c1C(=O)c1ccccc1C2=O	-3.7	.	.	-2.6	-0.7	i	4.4	-5.7

As entered above:
Result of COc1ccccc1OCCNC(=O)c1ccccc1C under MT1-MMP act inh: -2.8
Result of COc1ccccc1C(=O)NNC(=O)c1cccc(C)c1 under HIV Env fusion: -35.5
Result of C=CCNC(=S)NNC(=O)c1cccn(Cc2ccc(Cl)cc2)c1=O under MT1-MMP act inh RFP: 1.2

(cont.)
cpd	canonical_smiles	UUG fidelity	eIF4H FP inh	PABP polyA inh	HIV Env fusion	CSC inhib	Rce1 inhib	MT1-MMP act inh	MT1-MMP act inh RFP
31	O=C(c1ccccc1)N1CCN(Cc2ccccc2C(F)(F)F)CC1	.	4.7	43.4	-2.5	6.7	i	-2.2	1.5
32	CC(C)[C@H](NC(=O)Nc1ccc(Oc2ccccc2)cc1)C(=O)O	-14.2	-9.9	2.6	.	-3.9	i	-5.2	4.6
33	O=C(O)CC12CC3CC(C1)CC(n1ncc(NCC4CCCO4)c(Cl)c1=O)(C3)C2 (stereo unspecified)	-12.0	1.2	10.1	0.3	9.9	i	3.0	6.1
34	COc1ccc(OC)c(NC(=O)CCCN2C(=O)C3C4C=CC(C4)C3C2=O)c1 (stereo unspecified)	1.5	-2.5	1.1	.	-20.5	i	-1.1	1.5
35	CS(=O)(=O)Nc1cccc(C2=NN(C(=O)CCC(=O)O)C(c3cccs3)C2)c1 (stereo unspecified)	-14.7	-5.0	8.1	-7.8	1.3	i	-7.2	0.6
36	CC(=O)N1CCc2cc(Br)cc(S(=O)(=O)N3CCC(C(=O)O)CC3)c21	-2.0	22.5	11.9	-3.3	-3.0	i	-4.7	0.2
37	C/C(=N/NC(=O)CCc1ccccc1)c1ccco1	.	4.7	5.5	4.7	-3.4	i	0.9	8.4
38	CCCN(CCC)Cc1c(C(=O)N/N=C/c2ccco2)nnn1-c1nonc1N	-2.7	-10.4	6.4	4.0	-6.3	.	-5.6	-3.3
39	CC1CCCCN1C(=S)NCCc1ccccc1 (stereo unspecified)	-10.1	-0.4	4.6	-7.2	10.9	i	2.1	1.5
40	CCN1CCSc2ccc(C(=O)NCc3ccc(OC(C)C)cc3)cc21	-2.3	1.5	-3.1	28.1	8.1	i	1.9	1.1
41	COc1ccc2c(c1)oc1c(SCc3nc4ccccc4[nH]3)nc(C)nc12	-6.0	.	.	-47.8	.	.	-1.8	-1.6
42	Cc1ccc(OCC(=O)NNC(=O)[C@@H]2CCCC[C@@H]2C(=O)O)c(Br)c1	-15.6	-8.7	-4.5	.	-13.2	i	-0.6	2.3
43	Cc1ccc(S(=O)(=O)N2CCC(C(=O)Nc3cc(C(F)(F)F)ccc3N3CCOCC3)CC2)cc1C	-1.0	.	.	-0.3	8.6	i	-18.4	-16.9
44	O=C(NCC1CCCO1)C1CC(=O)N(c2ccccc2)C1 (stereo unspecified)	-5.6	-10.3	-2.4	5.6	.	i	2.4	7.0
45	Cc1nonc1CN(C)C(=O)CC1C(=O)NCCN1Cc1ccccc1C(F)(F)F (stereo unspecified)	-9.0	9.0	0.4	-18.0	0.9	i	2.1	5.5
46	CN(CCc1ccccn1)C(=O)CCC1CCCN(Cc2ccccc2OC(F)F)C1 (stereo unspecified)	.	-4.7	-1.9	13.2	.	i	-3.4	2.8
47	CCN1C(=O)[C@H]2[C@@H](c3ccc(Cl)cc3)N3C(=O)CN(CC4CC4)C(=O)[C@@]3(C)[C@H]2C1=O	-19.9	-8.8	-0.1	-3.7	-16.5	i	-2.3	0.8
48	O=C(NC1CCCCC1)c1ccc2c(c1)OCO2	-7.9	-12.3	-2.4	-28.3	1.9	i	2.3	2.9
49	CCc1ccc(NC(=O)CSCc2ccc(C(=O)O)cc2)cc1	.	5.0	0.8	-4.7	-14.2	i	5.8	4.5
50	CNCCOc1ccccc1C(C)(C)C	-13.3	9.6	22.1	-8.3	.	i	-6.8	2.4
51	CCc1cccc(NC(=O)c2ccc(Br)o2)c1	8.6	-13.2	9.8	-64.0	.	i	-5.3	-1.2
52	CC(=O)Nc1ccc(NC(=O)C(C)OC(=O)CCC(=O)c2ccc(F)cc2)cc1 (stereo unspecified)	-5.5	-14.2	9.1	-130.4	7.4	i	3.2	6.3
53	COc1ncccc1C(=O)N1CCCC(C(=O)Nc2cccc(-c3ccc(F)cc3)c2)C1 (stereo unspecified)	-1.2	.	.	24.2	.	.	-1.6	-8.0
54	CCCCn1c(N)c(N(CC)C(=O)c2ccc(C#N)cc2)c(=O)[nH]c1=O	-9.1	-3.3	-2.8	-7.8	6.4	i	1.0	6.6
55	O=C(Cc1cccc(NC(=O)C2CCCN(C(=O)CCc3ccccc3)C2)c1)Nc1ccc(C(=O)N2CCCCC2)cc1 (stereo unspecified)	0.0	.	.	-1.8	.	.	-0.7	-7.0
56	O=C(Nc1nc(-c2cccc(Br)c2)cs1)Oc1ccccc1	-35.1	-1.2	-2.7	.	0.3	.	1.1	0.8
57	CCCCOc1ccc(-c2csc(N)n2)cc1[N+](=O)[O-]	.	-6.4	-6.7	-142.5	.	i	3.0	-4.9
58	O=C1CCC([N+](=O)[O-])C(c2ccccc2C(F)(F)F)N1 (stereo unspecified)	3.3	-4.7	-10.6	-1.4	-5.9	i	-0.6	8.4
59	CC(C)c1c(C(=O)N/N=C/c2ccncc2)nnn1-c1nonc1N	-13.1	-0.9	2.8	-34.2	-4.6	i	1.2	2.3
60	NC(=O)c1ccc(=O)n(Cc2ccc(Cl)cc2Cl)c1	-7.6	-6.3	-3.0	6.1	-13.4	i	-0.6	-0.7
61	Cc1ccc(NC(=O)c2cc(NC(=O)c3ccco3)ccc2N2CCOCC2)cc1Cl	-8.0	-4.5	-7.9	.	1.1	i	-1.6	-5.6
62	COc1cccc(C2(O)C(=O)Nc3ccccc32)c1 (stereo unspecified)	-7.8	-10.1	35.8	-1.7	13.5	i	-2.0	1.7
63	COc1ccc(NC(=O)CN2C(=O)NC3(CCCC3)C2=O)cc1OC	.	29.7	-6.7	-13.7	12.7	i	0.1	-0.3
64	O=C(Nc1cccnc1Cl)c1ccc(S(=O)(=O)N2CCCCCC2)cc1	8.7	1.9	2.7	21.2	4.0	i	-2.2	-1.6
65	CN(C)CCNC(=O)C1(O)c2cc(Br)ccc2NC(=O)N1c1ccc(Cl)cc1 (stereo unspecified)	14.6	3.3	12.9	2.2	-14.2	i	2.9	5.8

Complete entries, quoted from the list. Order of values: UUG fidelity	eIF4H FP inh	PABP polyA inh	HIV Env fusion	CSC inhib	Rce1 inhib	MT1-MMP act inh	MT1-MMP act inh RFP
CN(C)CCNC(=O)C1(O)c2cc(Br)ccc2NC(=O)N1c1ccc(Cl)cc1 (stereo unspecified) across the screens: 14.6	3.3	12.9	2.2	-14.2	i	2.9	5.8
O=C(Nc1cccnc1Cl)c1ccc(S(=O)(=O)N2CCCCCC2)cc1 across the screens: 8.7	1.9	2.7	21.2	4.0	i	-2.2	-1.6

Some of the compounds tested; rates above refer to the full screens.
